Ab BasE inh = inhibitors of Acinetobacter baumannii siderophore enzyme BasE | inhibition, % (no concentration beside the values) | purified BasE, fluorescence polarization binding displacement | actives 0.1% (n = 84,000);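 active means both replicates above 25% with normal brightness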;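 further: 0% = negative plate control signal and 100% = positive plate control signal; stock transfer was 100 nL into about 30 µL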
LANA-nucl inh = inhibitors of KSHV LANA binding to nucleosomes. FITC-LANA1-23 / chicken nucleosome fluorescence polarization; stronger effect = lower value. z-score (test concentration not listed). actives 0.3% (n = 51,000). AID 720717;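 active means both repeat wells score below -2 in polarization z-score versus plate sample wells, excluding overly bright wells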;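 further: 100 nL library stock added to about 30 µL; numbers are from one replicate; some results filed as inactive read as strong as hits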
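Assay system: FITC-LANA peptide and chicken nucleosomes; input: 240 nM purified chicken nucleosomes (480 nM peptide binding sites), final; also added: 50 nM FITC-LANA1-23 probe; medium: TEN-BT buffer, pH 7.5; doses: pin-transferred compound, 100 nL; times: 10–45 min, room temperature; technique: fluorescence polarization; replication: duplicates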
* = called active by the depositor; nt = not tested or not shown; & = joins results of further samples.

mol	LANA-nucl inh	Ab BasE inh
O=C(NCc1ccccn1)C1CC(c2cccc(Br)c2)=NO1 (stereo not given)	-0.0575	-0.4
Cc1nc(SCC(=O)NC2CCCC2)[nH]c(=O)c1Cc1ccccc1	1.28	1.1
O=C1C=C(N2CCCCC2)C2(CCCCC2)O1	2.01	-2.6
CSC1=NCCCN1C(=O)c1ccccc1I	nt	2.6
CCC(CO)NC(=O)c1cc2c(n(-c3ccccc3)c1=O)CC(C)(C)CC2=O (stereo not given)	-0.429	2.0
CC1COC(CC(C)c2ccccc2)O1 (stereo not given)	-0.659	1.3
Nc1ccccc1N1CCN(C(=O)c2ccccc2)CC1	2.02	-4.5
O=C(CCC(=O)c1ccccc1)Nc1nccs1	nt	1.2
CC(C)(C#N)N1CCOCC1	nt	21.6
O=C(Nc1cccc(C(=O)N2CCN(C(=O)c3ccco3)CC2)c1)c1ccccc1	-0.331	-1.3
CN(C)c1ccc(-c2nnn(CC(=O)N(C)C3CCCCC3)n2)cc1	-0.0045	2.5
Brc1cc2c(cc1COc1ccc(-c3nn[nH]n3)cc1)OCO2	1.02	0.8
COc1ccc(CC(N)C(=O)N[C@H]2[C@@H](O)[C@H](n3cnc4c(N(C)C)ncnc43)O[C@@H]2CO)cc1 (stereo not given in full)	-0.071	1.1
CCC(CC)c1nc2ccccc2[nH]1	nt	-0.9
COc1ccccc1N(CC(=O)NC1CCCCC1)C(=O)c1csnn1	0.806	2.0

Other entries follow.
mol	LANA-nucl inh	Ab BasE inh
Nc1c(C(=O)O)noc1C(=O)c1ccccc1	-0.426	2.9
CCc1ccccc1OCCCN(CC)CC	nt	2.8
CC(Sc1ccc2c(c1)OCCO2)C(=O)Nc1ccccc1C#N (stereo not given)	nt	2.4
Cc1ccc(CC(C#N)Sc2nnc(COc3ccccc3Cl)n2C)cc1 (stereo not given)	nt	1.2
CON(C)C(=O)c1sc2ccccc2c1Cl	-0.395	0.1
O=c1[nH]nc(-c2cccs2)cc1Cc1ccsc1	0.209	1.1
COc1ccc(CCNC(=S)Nc2ccc(N3CCOCC3)c3nonc23)cc1OC	0.647	2.4
O=C(CC1S/C(=N/N=C/c2ccco2)NC1=O)Nc1ccc(Cl)cc1 (stereo not given)	-1.71	1.6
NC(=O)c1ccc(OCc2cc3c(cc2Br)OCCO3)cc1	nt	-0.6
O=C(O)Cn1c2c(c3cc(F)ccc31)CCCC2	-0.345	8.5
O=C(NCc1cccs1)c1cc(NS(=O)(=O)c2ccc(F)cc2)ccn1	-0.784	0.8
Cc1ccc(-c2nc3scc(CCNC(=O)Cc4ccccc4)n3n2)cc1	-0.82	-2.4
O=C(NS(=O)(=O)c1ccc(Cl)cc1)C1CC1	nt	-2.0
O=S(=O)(c1ccc(NCc2nc3ccccc3[nH]2)nc1)N1CCCC1	nt	-1.0
COc1ccc(N2CCN(CC(=O)c3ccc(OC)c(OC)c3)CC2)cc1	-0.21	0.4

The list goes on:
mol	LANA-nucl inh	Ab BasE inh
COc1ccc2[nH]c(=O)c(CN(Cc3ccco3)C(=S)NCc3ccco3)cc2c1	0.129	1.9
O=C(COc1ccc2ccccc2c1)NS(=O)(=O)c1ccccc1	nt	5.7
COC(=O)c1ccc(NC(=O)Nc2ccc3c(c2)nc(C)n3C)cc1	-0.126	-3.5
C#CCOc1c(Cl)cc(CNCC2CN(CC(C)C)CCO2)cc1OC (stereo not given)	nt	-0.8
N#CCSc1ccccc1NC(=O)CN1C(=O)C2CC=CCC2C1=O (stereo not given)	nt	-25.7
CCC(CC)C(=O)Nc1cccc(C(=O)N2CCCC2)c1	0.174	-1.6
CCN(CC(=O)NCc1ccc(F)cc1)C(=O)c1cc(S(=O)(=O)N2CCOCC2)ccc1Cl	nt	-2.0
CCCCOc1ccc(C(=O)N=c2sccn2C)cc1OC	nt	-3.0
CN(C)c1nn(C(=S)Nc2ccccc2)cc1-c1ccccc1	-0.417	nt
CCn1c(SCc2cc(=O)n3cc(C)ccc3n2)nc2ccccc21	nt	0.2
NC(C(=O)O)c1ccccc1F (stereo not given)	-0.258	nt
OCCN1CN=C(SCc2ccc(Cl)c(Cl)c2)NC1	nt	-0.1
O=C(O)c1cc2c(cc1NC(=O)C1CCCC1)OCCCO2	nt	1.2
N#CC1=C(N)OC2=C(C(=O)CCC2)C12C(=O)Nc1ccc(F)cc12 (stereo not given)	-0.354	0.8
CC(=O)NC1[C@@H](O)OC(CO)[C@@H](O)[C@H]1O[C@H](C)C(=O)O (stereo not given in full)	0.596	-1.9

Single values from the results shown.
`N#CC1=C(N)OC2=C(C(=O)CCC2)C12C(=O)Nc1ccc(F)cc12` (stereo not given) – Ab BasE inh = 0.8
`COc1ccc2[nH]c(=O)c(CN(Cc3ccco3)C(=S)NCc3ccco3)cc2c1` – LANA-nucl inh = 0.129

Other compounds.
mol	LANA-nucl inh	Ab BasE inh
CCOC(=O)c1c(-c2c(Cl)cccc2Cl)noc1C	nt	-0.9
C#CCSc1ncc(-c2ccc(Cl)cc2)n1C	1.53	nt
O=c1c(-c2ccc(Br)cc2)coc2cc(O)cc(O)c12	-1.26	0.3
CN(C)C(=O)Oc1nnc(SCC(=O)c2ccc3c(c2)OCCO3)n1C1Cc2ccccc2C1	nt	-0.5
Cc1ccccc1C(=O)NC1CCN(Cc2nnnn2Cc2ccccc2)CC1	0.444	2.0
CCC(CC)C(=O)c1c[nH]c(C(=O)OC)c1	0.558	nt
O=C(Cn1c(=O)c2c(ncn2Cc2ccccc2)n(Cc2ccccc2)c1=O)N1CCCC1	nt	0.2
Cc1ccc(C(=O)NCc2ccc(-c3nc4ncccc4o3)cc2)cc1	0.9	3.0
CC(Nc1ccccc1)C(=O)N1CCc2ccccc21 (stereo not given)	nt	2.0
Cc1cnn(C(=S)NCc2ccc(Cl)cc2)c1	2.35	-3.2
C=CCn1c(=O)n(CC=C)c(=O)n(Cc2ccc(C#N)cc2)c1=O	nt	0.6
O=C(CCC1CCCCC1)NC1CCCC1	0.665	-1.1
Cc1cccc(NS(=O)(=O)c2cc(C(=O)NCc3ccco3)ccc2C)c1	-0.214	-2.1
O=C(O)c1ccc(/C=c2/sc3n(c2=O)CCN=3)cc1	-0.0705	4.0
O=C(Nc1cccc(Cl)c1)Nc1ccc2nc3n(c(=O)c2c1)CCC3	nt	-2.8

Among those listed so far, these have a COOH group.
mol	LANA-nucl inh	Ab BasE inh
Nc1c(C(=O)O)noc1C(=O)c1ccccc1	-0.426	2.9
O=C(O)Cn1c2c(c3cc(F)ccc31)CCCC2	-0.345	8.5
NC(C(=O)O)c1ccccc1F (stereo not given)	-0.258	nt
O=C(O)c1cc2c(cc1NC(=O)C1CCCC1)OCCCO2	nt	1.2
CC(=O)NC1[C@@H](O)OC(CO)[C@@H](O)[C@H]1O[C@H](C)C(=O)O (stereo not given in full)	0.596	-1.9
O=C(O)c1ccc(/C=c2/sc3n(c2=O)CCN=3)cc1	-0.0705	4.0

(cont.)
mol	LANA-nucl inh	Ab BasE inh
CC1CC(=O)Nc2ccccc2N1C(=O)c1cccs1 (stereo not given)	0.0185	0.9
O=C(Cc1ccccc1)NCC(=O)N1CCN(C(=O)c2ccco2)CC1	-0.762	1.2
O=C(c1cnccn1)N(Cc1ccc(Cl)cc1)Cc1cc2cc3c(cc2[nH]c1=O)OCCO3	-0.796	1.2
Cc1ccnn2cc3c(=O)n(C)c(=O)n(C)c3c12	-3.03	16.0
CC(C)c1ccc(NC2C=CS(=O)(=O)C2)cc1 (stereo not given)	-0.16	1.4
COc1ccccc1NC(=O)c1c(N=Cc2c(O)ccc3ccccc23)cnn1C	nt	1.5
O=C(Nc1ccc(SC(F)F)cc1)c1ccc2c(=O)n3c(nc2c1)CCC3	nt	-0.8
CC(C)C1N=C2c3ccccc3N=C(SCc3cc(=O)n4cc(Br)ccc4n3)N2C1=O (stereo not given)	0.604	0.1
Cc1cc(C)c2c(n1)sc1c(SCc3ccccc3)nc(C)nc12	nt	2.1
CC(=O)Nc1ccc(NC(=O)COC(=O)Cc2c[nH]c3ccccc23)cc1	nt	0.6
Cc1cc(Cl)ccc1OCC(=O)NN1C(=O)C2C3C=CC(C3)C2C1=O (stereo not given)	nt	-0.2
Cc1cccc(C)c1NC(=O)CN1C(=O)c2ccccc2S1(=O)=O	1.37	-3.5
C=CCNC(=S)N1CCN(C(=S)NCC=C)CC1	0.986	3.6
COc1ccc(NC(C)=O)cc1NC(=O)c1cc2cccnc2n(C)c1=O	0.507	1.3
O=C(NC1CCCC1)C(c1ccccc1)N(CC1CCCO1)C(=O)Cn1nnc2ccccc21 (stereo not given)	-0.378	-1.2

(further entries)
mol	LANA-nucl inh	Ab BasE inh
O=C(c1ccco1)N1CCCN(C(=O)c2ccco2)CC1	0.239	2.8
Cc1cnc(NC(=O)c2ccc(OCC3CCCO3)cc2)s1 (stereo not given)	nt	2.5
O=C(OCc1cc(=O)n2ccsc2n1)C1(c2ccccc2)CC1	nt	2.1
O=C(O)C(CO)N=Cc1c(O)c2ccccc2oc1=O (stereo not given)	-0.278	2.2
Cc1ccc(S(=O)(=O)NC(c2ccccc2)c2nnc(-c3ccccc3)o2)cc1 (stereo not given)	0.354	-0.2
O=C(c1ccc2c(=O)n3c(nc2c1)CCCCC3)N1CCCc2ccccc21	nt	-2.2
Cc1cccc(N(Cc2ccccc2)C(=O)CSc2nc(N)nc(N)n2)c1	nt	0.4
CCN1C(=O)/C(=C\C=C2/N(CC)c3ccc(C(=O)OC)cc3N2CC)SC1=S	2.08	-27.1
CCOC(=O)c1sc(N)c(C#N)c1COC(=O)c1ccc2c(=O)n3c(nc2c1)CCC3	nt	-52.0
CCOc1ccc(C(=O)NCC(=O)N2CCCC2)cc1	nt	0.1
Cc1cc(Oc2ccccc2F)nc(N)n1	0.211	3.4
CCOCC(=O)Nc1c(C(=O)Nc2ccc(F)c(F)c2)oc2ccccc12	-0.541	-0.8
Cc1cccc(C#CCN2CCCCC2)c1	nt	-1.1
O=C(Cn1c(-c2cccs2)cc2ccccc21)NCC1CCCO1 (stereo not given)	-0.742	-1.2
O=C1CSC(N(c2ccccc2)c2ccccc2)=N1	-0.694	0.5

Going on with the list:
mol	LANA-nucl inh	Ab BasE inh
COC(=O)C(CO)NC(=O)c1ccccc1 (stereo not given)	0.354	1.2
N#Cc1ccc(NC(=O)COC(=O)CCC2CCCCC2)cc1	nt	2.6
COc1ccc(N=Cc2c(O)ccc3oc4c(c23)CCCC4)cc1	nt	-2.3
CCN(CC)C(=O)Nc1cnc2ccccc2c1	-0.283	0.2
Nc1ccc(-c2nc3ccc(N)cc3s2)cc1	0.578	0.1
S=c1[nH]nc(COc2ccccc2)o1	0.156&-0.58	2.4&0.4
Cc1ccc2nc(CNc3ccc(Cl)cc3)cc(=O)n2c1	nt	-0.6
CCOC(=O)N1CCN(C(=S)NC(=O)c2cccc(OC)c2)CC1	nt	3.2
O=C(CSc1nc2ccccc2n1CC(=O)N1CCCC1)Nc1ccccc1	0.13	3.0
O=C1C(SCCO)=C(SCCO)C(=O)c2ccccc21	-0.739	nt
COc1cccc(-c2noc(Cc3ccccc3)n2)c1	-1.27	4.7
CC1=NNC(=O)C1CC(=O)N/N=C/c1ccc(N(C)C)cc1 (stereo not given)	-1.17	1.3
O=C(CSCc1ccccc1Cl)Nc1c[nH]c(=O)[nH]c1=O	0.482	3.3
Cc1cc(C)c(Cn2cccc2C2=NC(C)CO2)c(C)c1 (stereo not given)	-0.804	2.1
CC(=O)Oc1ccc(S(=NS(=O)(=O)c2ccccc2)c2ccc(OC(C)=O)cc2)cc1	-0.242	1.0

Later entries.
mol	LANA-nucl inh	Ab BasE inh
CCCCn1c(=N)n(CC(O)COc2ccccc2)c2ccccc21 (stereo not given)	1.38	-2.4
COc1ccc(N2CCN(C(=O)NC(=O)c3ccccc3)CC2)cc1	2.51	0.8
Cc1nc(N2CCCC2=O)sc1C(=O)O	nt	0.2
O=c1c2c(nc3c(-c4ccccc4)c[nH]n13)CCC2	-0.583	0.9
COc1cc2cc(C)c(=S)[nH]c2cc1OC	0.86	-0.8
CCc1ccc(Oc2coc3cc(OC(=O)C4CCCCC4)ccc3c2=O)cc1	nt	-0.2
CCN(Cc1cc(=O)n2oc(C)cc2n1)c1ccc(Cl)cc1	0.768	-0.9
CNC(=S)N1CCc2sccc2C1c1ccc(Cl)cc1 (stereo not given)	nt	-1.4
CN[C@@H]1[C@H](OC2[C@H](O[C@H]3[C@H](O)[C@@H](O)[C@H](N=C(N)N)[C@@H](O)[C@@H]3N=C(N)N)O[C@@H](C)[C@]2(O)C=O)O[C@@H](CO)[C@H](O)[C@H]1O (stereo not given in full)	0.258&1.37	0.1
COc1ccccc1C(=O)NC(C(C)C)C(C)C	0.468	1.8
CC1CCCc2c1nc(N)c(C#N)c2-c1ccccc1 (stereo not given)	-0.55	2.9
Cc1ccc2onc(CNC(=O)NC3CCCC3)c2c1	-0.921	1.2
O=C(c1cnn(-c2ccccc2)c1-n1cccc1)N1CCC(Cc2ccccc2)CC1	0.43	2.0
CCOC(=O)N1CCN(C(=O)CCn2c(=S)[nH]c3ccsc3c2=O)CC1	0.227	1.8
CCS(=O)(=O)N(Cc1ccco1)Cc1nc(-c2cccs2)no1	-0.333	1.9
CC1(C)N=C(N)NC(Nc2ccccc2Br)=N1	nt	-0.8

Assay outcomes deposited in PubChem by ICCB-Longwood Screening Facility, Harvard Medical School.

Only part of the results is shown; rates above refer to the full screens.
